Source: PubChem BioAssay
ALR inh: blocks human ALR sulfhydryl oxidase activity; inhibition, % (concentration not given with the values); purified ALR, DTT oxidation, H2O2 HRP-luminol luminescence; 290,000 tested, 3.8% active; P55789;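 active means mean and each replicate at 75% or more; inconclusive means only one of the two met; inactive means neither met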;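 further: stock transfer was 7.5 nL into about 7.5 µL; 0% = neutral wells and 100% = wells with inactivated enzyme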
Target sequence (P55789 whole entry, looked up): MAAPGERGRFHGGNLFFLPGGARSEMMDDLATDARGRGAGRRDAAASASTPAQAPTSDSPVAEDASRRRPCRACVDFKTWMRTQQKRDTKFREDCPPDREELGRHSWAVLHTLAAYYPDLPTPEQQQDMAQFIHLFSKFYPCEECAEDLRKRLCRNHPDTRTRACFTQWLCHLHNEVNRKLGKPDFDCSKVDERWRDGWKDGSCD
A1 inh: inhibitors of the anti-apoptotic protein A1, read as caspase activation. MEF A1-2A-BIM cells, Caspase-Glo 3/7 luminescence, 3 h; percent of clofoctol response, vehicle zero. caspase activation, % (concentration not given with the values). 330,000 tested, 0.066% active. AID 2462;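 active means over half of replicate activation scores above 10%, or exactly half above 10 with the replicate mean above 10; inconclusive means replicate mean below 10 yet half the replicates above 10; inactive means over half of replicates below 10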;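 further: wells of about 30 µL received 50 nL stock; many hits fall short of the cut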
Calb FLC: C. albicans growth modulation with fluconazole; C. albicans CaCi-2 (fluconazole-resistant clinical isolate) + fluconazole, Alamar Blue growth, 48 h; growth inhibition, % (concentration not given with the values); 300,000 tested, 0.57% active;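 active means most replicates above 75%; inconclusive means exactly half above 75%; inactive means most below 75%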;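 further: all wells also contain fluconazole at 8 µg/ml as a sub-toxic cotreatment; 0% = median of DMSO wells and 100% = median of geldanamycin control wells; wells of about 8 µL received 7.5 nL stock; the first replicate is given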
Beta apoptosis: beta cell apoptosis inhibition | 300,000 tested, 0.8% active | protection from apoptosis, % (test concentration not listed) | INS-1E cytokine-induced death, ATP luminescence, 48 h; percent of positive-control rescue, neutral wells zero;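 active means all replicates at 75% or more, or half of them and the mean; inconclusive means half reach 75% but not the mean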;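 further: 0% = cytokine-treated negative control wells and 100% = positive control rescue; higher means more ATP so stronger rescue from cytokine killing; wells of about 40 µL received 100 nL stock; the first replicate is given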
T cruzi repl: T. cruzi replication inhibition | T. cruzi beta-gal in NIH3T3, luminescence, 90 h | 300,000 tested, 1.4% active | inhibition, % (concentration not given with the values) | AID 1885;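 active means mean inhibition across valid replicates above about 55%, limit read from the data; inconclusive means mean below that limit but half or more replicates reach it; inactive means mean below it, under half of replicates reach it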;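 further: signal also drops with host cell toxicity which is not excluded here; 0% = plate median of DMSO wells and 100% = zero luminescence signal; higher percent means less beta-gal luminescence so fewer parasites; stock transfer was 50 nL into about 50 µL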
Ecoli rRNA inh: inhibits bacterial ribosomal RNA function over humanized ribosomes | E. coli WT GFP vs humanized-ribosome RFP mutants, fluorescence, 24 h; stronger effect = lower value; DMSO median 0, no signal -100 | GFP signal change (wild-type ribosome), % (concentration not given with the values) | 350,000 tested, 1.6% active;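 active means significant combined selectivity score with lowered wild-type GFP, culture density cut under 30%, mutant RFP and density less affected; inactive means any of these conditions unmet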; further: one replicate is shown; some compounds called inactive have numbers as strong as hits
LANA-H2A inh: blocks KSHV LANA binding to histone H2A/H2B. inhibition, % (no concentration beside the values). 320,000 tested, 0.6% active. cell-free LANA-H2A/H2B peptide, fluorescence polarization. Q9QR71; in the data active means inhibition mostly above about 10%, no sharp cut-off; inactive means mostly below about 6.7%;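 further: stock transfer was 7.5 nL into about 10 µL; 0% = median of vehicle wells and 100% = median of positive control wells; one replicate is shown; the record names a cut of 25% in any replicate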
B2AR ag: agonists of human beta-2 adrenergic receptor inducing internalization | P07550 | Am2.2-beta2AR cells, FAP receptor internalization, flow cytometry; reference of the scale not given here | response, % (test concentration not listed) | 340,000 tested, 0.43% active;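 active means response above a set limit, near 3 SD of response in nonfluorescent compounds, cut at about 42% in these data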;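 further: stock transfer was 100 nL into about 11 µL; a reference agonist was the positive control; negative values mostly stem from fluorescent compounds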
Target sequence (P07550 whole entry, looked up): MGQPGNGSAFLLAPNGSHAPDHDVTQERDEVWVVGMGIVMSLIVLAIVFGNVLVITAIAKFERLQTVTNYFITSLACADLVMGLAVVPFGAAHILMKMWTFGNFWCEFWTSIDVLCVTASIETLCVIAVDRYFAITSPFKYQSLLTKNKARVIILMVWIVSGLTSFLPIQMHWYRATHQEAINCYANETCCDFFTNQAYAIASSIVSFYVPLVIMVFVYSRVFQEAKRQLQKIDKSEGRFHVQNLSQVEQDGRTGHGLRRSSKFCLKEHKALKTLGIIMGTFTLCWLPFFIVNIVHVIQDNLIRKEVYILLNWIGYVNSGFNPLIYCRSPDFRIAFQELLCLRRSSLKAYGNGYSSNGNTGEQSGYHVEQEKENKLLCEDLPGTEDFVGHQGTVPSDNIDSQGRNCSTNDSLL
Ecoli rRNA inh OD600: recorded beside Ecoli rRNA inh, whose call it bears; OD600 change, %; measured here: OD600 growth;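 optical density of the mix in the first replicate; 0 = DMSO median and -100 = no signal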
Ecoli rRNA inh RFP: recorded beside Ecoli rRNA inh, whose call it bears; RFP signal change, %; measured here: RFP humanized mutant strains;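 first replicate; 0 = DMSO median and -100 = no signal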
Active calls of the source: *; & = joins results of further samples.

`O=c1oc2ccccc2c(N2CCCC2)c1[N+](=O)[O-]` gave ALR inh -3, A1 inh 1.3, Calb FLC 17, Beta apoptosis -5, T cruzi repl -15, Ecoli rRNA inh 12, LANA-H2A inh 4.5, B2AR ag -5, Ecoli rRNA inh OD600 17 and Ecoli rRNA inh RFP 5.6.
Cn1c(CNc2ccc(Br)cc2)nc2ccccc21 was read as ALR inh 96*, A1 inh -3.7, Calb FLC -5, Beta apoptosis 3, T cruzi repl -3, Ecoli rRNA inh -1, LANA-H2A inh -0.4, B2AR ag -8, Ecoli rRNA inh OD600 -14 and Ecoli rRNA inh RFP 5.9.
`O=C(c1ccco1)c1nnn(Cc2ccccc2)c1-c1ccccc1` gave ALR inh 5, A1 inh 0.2, Calb FLC 13, Beta apoptosis 4, T cruzi repl 15, Ecoli rRNA inh -36*, LANA-H2A inh 3.0, B2AR ag -6, Ecoli rRNA inh OD600 -13* and Ecoli rRNA inh RFP 7.7*.
For CC1CN(C(=O)N(C)C)CCN1C(=O)N(C)C (configuration not stated) the results were A1 inh 0.0, Calb FLC -7, Beta apoptosis 5, T cruzi repl -11, LANA-H2A inh -1.2 and B2AR ag 5.
Screening O=C(Nc1cc(=O)c2ccccc2o1)N1CCCCC1 returned ALR inh 0, A1 inh 1.1, Calb FLC 10, Beta apoptosis -6, T cruzi repl 27, LANA-H2A inh 1.2 and B2AR ag 12.
`O=[N+]([O-])c1cnc(N2CCCCC2)c([N+](=O)[O-])c1` gave ALR inh -24, A1 inh 1.0, Calb FLC -5, Beta apoptosis -5, T cruzi repl -13, LANA-H2A inh 2.9 and B2AR ag -1.
`CC1Cc2ccccc2N1C(=O)CSc1nnc(CNc2ccccc2)o1` (configuration not stated) gave ALR inh 1, A1 inh 0.3, Calb FLC 3, Beta apoptosis -2, T cruzi repl -13, Ecoli rRNA inh 8, LANA-H2A inh -1.4, B2AR ag -8, Ecoli rRNA inh OD600 5 and Ecoli rRNA inh RFP -1.1.
Screening CCOC(=O)c1cnc(SC)nc1Nc1cccc(F)c1 returned ALR inh -8, A1 inh 0.0, Calb FLC -33, Beta apoptosis 10, T cruzi repl 22, LANA-H2A inh 4.3 and B2AR ag 3.
For COc1ccc(C(C(=O)NCC2CCCO2)N(Cc2cccs2)C(=O)c2snc(C(N)=O)c2N)cc1OC (configuration not stated) the results were A1 inh 0.1, Calb FLC 12, Beta apoptosis 0, T cruzi repl -11, Ecoli rRNA inh 0, LANA-H2A inh 1.7, B2AR ag 12, Ecoli rRNA inh OD600 -3 and Ecoli rRNA inh RFP 0.9.
C/C(=N\NC(=O)c1ccc(Cl)c(S(=O)(=O)Nc2ccccc2Cl)c1)c1ccncc1 was read as ALR inh 4, A1 inh 0.3, Calb FLC -13, Beta apoptosis -3, T cruzi repl 1, LANA-H2A inh -0.1 and B2AR ag 3.
`COc1ccc(-c2nn(-c3ccccc3)cc2C2CC(c3cccs3)=NN2C(=O)CCCC(=O)O)cc1` (configuration not stated) gave ALR inh 1, A1 inh -0.1, Calb FLC 31, Beta apoptosis 6, T cruzi repl 14, LANA-H2A inh 0.0 and B2AR ag -5.
NS(=O)(=O)c1ccc(CCNC(=O)c2cccc3ccccc23)cc1 was read as ALR inh -6, A1 inh 0.4, Calb FLC 4, Beta apoptosis -5, T cruzi repl 8, Ecoli rRNA inh 1, LANA-H2A inh 1.5, B2AR ag 8, Ecoli rRNA inh OD600 5 and Ecoli rRNA inh RFP -2.6.
For Cc1ccc(S(=O)(=O)CC(O)COc2ccccc2C#N)cc1 (configuration not stated) the results were A1 inh 0.3, Calb FLC 2, Beta apoptosis -8, T cruzi repl 0, Ecoli rRNA inh -12, LANA-H2A inh 4.1, B2AR ag 3, Ecoli rRNA inh OD600 -23 and Ecoli rRNA inh RFP -5.7.
`COc1ccc(NC(=O)CSc2nnc(Cc3cccn3C)n2-c2ccc(C)cc2)cc1OC` gave ALR inh 44, A1 inh 0.4, Calb FLC 5, Beta apoptosis -3, T cruzi repl -10, LANA-H2A inh -4.2 and B2AR ag 2.
For CC(=O)N1CCN(CCN(CC2C(C)C=C(C)CC2C)C(C)=O)CC1 (configuration not stated) the results were ALR inh -7, A1 inh 0.2, Calb FLC -6, T cruzi repl -1, LANA-H2A inh -0.4 and B2AR ag 0.
`O=c1cc(-c2ccccc2O)nc(-c2ccccc2)[nH]1` gave ALR inh -6, A1 inh -0.3, Calb FLC -4, Beta apoptosis 3, T cruzi repl -14, Ecoli rRNA inh 7, LANA-H2A inh 0.0, B2AR ag 4, Ecoli rRNA inh OD600 4 and Ecoli rRNA inh RFP -1.4.
COC(=O)c1ccccc1OCC(=O)N1CCN(c2ccc(F)cc2)CC1 was read as ALR inh 36, A1 inh 1.5, Calb FLC -1, Beta apoptosis -8, T cruzi repl -14, LANA-H2A inh 3.3 and B2AR ag 3.
Screening CCCOc1cccc(C(=O)Nc2ccccc2C(=O)N2CCN(C)CC2)c1 returned ALR inh -6, A1 inh 0.6, Calb FLC inconclusive, Beta apoptosis 1, T cruzi repl 15, Ecoli rRNA inh 0, LANA-H2A inh 2.2, B2AR ag -18, Ecoli rRNA inh OD600 -2 and Ecoli rRNA inh RFP -0.7.
For CC(=O)Nc1nnc(-c2ccc(Cl)s2)o1 the results were ALR inh 0, A1 inh 0.1, Calb FLC -9, Beta apoptosis -3, T cruzi repl 8, Ecoli rRNA inh 12, LANA-H2A inh 6.5, B2AR ag 3, Ecoli rRNA inh OD600 0 and Ecoli rRNA inh RFP 0.3.
For O=C1CCc2cc(S(=O)(=O)N3CCCC3C(=O)N3CCN(c4ccccc4)CC3)ccc2N1 (configuration not stated) the results were A1 inh 0.6, Calb FLC 1, Beta apoptosis 1, T cruzi repl 10, Ecoli rRNA inh 0, LANA-H2A inh -2.9, B2AR ag 13, Ecoli rRNA inh OD600 10 and Ecoli rRNA inh RFP 16.
O=C(C1=C[C@H](c2ccc(Br)cc2)C[C@H](OCCCCO)O1)N1CCOCC1 was read as ALR inh -1, A1 inh 0.5, Calb FLC 1, Beta apoptosis -1, T cruzi repl 3, Ecoli rRNA inh 6, LANA-H2A inh 2.0, B2AR ag 1, Ecoli rRNA inh OD600 14 and Ecoli rRNA inh RFP 9.5.
O=C(O)CCCCCNC(=O)CCn1cnc2ccccc2c1=O was read as ALR inh -7, A1 inh 1.2, Calb FLC 36, Beta apoptosis -7, T cruzi repl -2, LANA-H2A inh 1.0 and B2AR ag 8.
`O=C(CSc1cccc(C(F)(F)F)c1)Nc1ccc(Cl)cc1Cl` gave ALR inh -9, A1 inh -0.8, Calb FLC 49, Beta apoptosis -1, T cruzi repl 6, LANA-H2A inh -5.7 and B2AR ag 1.
Screening CCN(CC)CCn1c(=S)[nH]c2cc(C(=O)N3CC(C)CC(C)C3)ccc2c1=O (configuration not stated) returned ALR inh 25, A1 inh 0.0, Calb FLC 3, Beta apoptosis 3, T cruzi repl 12, Ecoli rRNA inh 7, LANA-H2A inh -3.9, B2AR ag -6, Ecoli rRNA inh OD600 9 and Ecoli rRNA inh RFP -2.7.
COc1cc(C(=O)OCC(=O)Nc2cc(C)on2)ccc1OCc1ccccc1Cl was read as ALR inh 6, A1 inh -0.3, Calb FLC 0, Beta apoptosis -7, T cruzi repl 7, LANA-H2A inh 1.5 and B2AR ag -4.
`CCN1C(=O)[C@H]2[C@@H](c3ccc(-c4ccc(OC)cc4)cc3)N3CCCC[C@@]3(C(=O)OC)[C@H]2C1=O` gave ALR inh 2, A1 inh 1.1, Calb FLC -1, Beta apoptosis 1, T cruzi repl -4, Ecoli rRNA inh 12, LANA-H2A inh -1.7, B2AR ag 18, Ecoli rRNA inh OD600 14 and Ecoli rRNA inh RFP -0.6.
`Cc1ccc(C(=O)c2cc3c(cc2[N+](=O)[O-])OCCO3)cc1` gave A1 inh 0.3, Calb FLC -6, Beta apoptosis -1, T cruzi repl -2, Ecoli rRNA inh -16, LANA-H2A inh 3.7, B2AR ag 2, Ecoli rRNA inh OD600 -11 and Ecoli rRNA inh RFP -4.0.
For O=C(Nc1cccc2ccccc12)N1CCN(Cc2ccc3c(c2)OCO3)CC1 the results were ALR inh -24, A1 inh -0.8, Calb FLC -15, Beta apoptosis -3, T cruzi repl 7, Ecoli rRNA inh -18, LANA-H2A inh -2.3, B2AR ag 7, Ecoli rRNA inh OD600 -22 and Ecoli rRNA inh RFP -6.6.
`Cc1ccc(S(=O)(=O)Nc2cccc3c2O[C@H](CN(C)C(=O)Nc2ccc(C(F)(F)F)cc2)[C@@H](C)CN([C@H](C)CO)C3=O)cc1` gave ALR inh -3, A1 inh -0.4, Beta apoptosis -1, Ecoli rRNA inh -10&4, B2AR ag 2, Ecoli rRNA inh OD600 -12&-7 and Ecoli rRNA inh RFP 2.0&-3.4.
CCOc1ccccc1NC(=O)CSc1nnc(-c2ccco2)o1 was read as ALR inh -4, A1 inh 0.7, Calb FLC -4, Beta apoptosis -3, T cruzi repl 11, Ecoli rRNA inh 9, LANA-H2A inh -0.1, B2AR ag -17, Ecoli rRNA inh OD600 11 and Ecoli rRNA inh RFP -0.3.
For O=C(NCc1ccccn1)C(=O)NCC1OCCCN1S(=O)(=O)c1cc(F)ccc1F (configuration not stated) the results were ALR inh -4, A1 inh 0.0, Calb FLC 3, Beta apoptosis 0, T cruzi repl -13, Ecoli rRNA inh 5, LANA-H2A inh -8.5, B2AR ag 1, Ecoli rRNA inh OD600 0 and Ecoli rRNA inh RFP -1.1.
`COc1cccc(C2C(C(=O)Nc3ccccc3)=C(C)N=c3s/c(=C/c4ccc(OCC(=O)O)cc4)c(=O)n32)c1` (configuration not stated) gave ALR inh 97*, A1 inh -0.1, Calb FLC 18, Beta apoptosis 0, T cruzi repl -24, LANA-H2A inh -6.2 and B2AR ag 4.
S=C(Cc1cccnc1)N1CCOCC1 was read as ALR inh -3, A1 inh -0.3, Calb FLC -9, Beta apoptosis -3, T cruzi repl -1, LANA-H2A inh -4.8 and B2AR ag -2.
Screening O=C(CNC(=O)c1cccs1)NCCN1CCC(Cc2ccccc2)CC1 returned ALR inh -15, A1 inh 0.3, Calb FLC 3, Beta apoptosis -10, T cruzi repl -1, Ecoli rRNA inh 20, LANA-H2A inh 5.5, Ecoli rRNA inh OD600 2 and Ecoli rRNA inh RFP -2.5.

Grouped by structure, the entries above containing a furan ring, fused or not
`O=C(c1ccco1)c1nnn(Cc2ccccc2)c1-c1ccccc1` gave ALR inh 5, A1 inh 0.2, Calb FLC 13, Beta apoptosis 4, T cruzi repl 15, Ecoli rRNA inh -36*, LANA-H2A inh 3.0, B2AR ag -6, Ecoli rRNA inh OD600 -13* and Ecoli rRNA inh RFP 7.7*.
CCOc1ccccc1NC(=O)CSc1nnc(-c2ccco2)o1 was read as ALR inh -4, A1 inh 0.7, Calb FLC -4, Beta apoptosis -3, T cruzi repl 11, Ecoli rRNA inh 9, LANA-H2A inh -0.1, B2AR ag -17, Ecoli rRNA inh OD600 11 and Ecoli rRNA inh RFP -0.3.

Only part of the results is shown; the hit share may differ from the screen's.
